Source: PubChem BioAssay (several laboratories)
PrP 5UTR inh = inhibition of PrP 5' UTR reporter expression | cell-based PrP 5' UTR mRNA reporter, plate reader | inhibition, % (concentration not given with the values) | 340,000 tested, 0.35% active;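 active means every replicate at 50% or more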;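 further: 0 = median of the neutral control wells; tested in H4 reporter cells; numbers are from one replicate; inactives centre near -14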
RN4220 kill = S. aureus RN4220 growth inhibition; OD600, 16 h; inhibition, % (no concentration beside the values); 330,000 tested, 0.33% active; AID 1259311;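 active means z-score of -3 or lower and OD600 up to 0.18 on both plates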;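 further: plate controls were untreated cells for no effect and reference antibiotic for full effect; stock transfer was 100 nL into about 80 µL; one replicate is shown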
Mtb hypoxia inh = reduces hypoxia-regulated biosensor signal in M. tuberculosis; M. tuberculosis hypoxia-regulated fluorescent reporter, fluorescence; fluorescence inhibition, % (no concentration beside the values); 300,000 tested, 0.1% active; AID 1159583;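 active means 35 to 45% if threefold the growth effect, above 45% if 1.5-fold the growth effect; inactive means the rest, general growth blockers included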;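 further: wells of about 50 µL received 100 nL stock; 0% = vehicle wells and 100% = reference inhibitor wells; whole bacteria with a GFP reporter of the hypoxia response; strong numbers were not always called active; many hits fall short of the cut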
Autofluor counter = compound fluorescence in toxin protease inhibitor counterscreen. 360,000 tested, 3.1% active. compound autofluorescence counterscreen, microsphere flow cytometry; stronger effect = higher value. fluorescence intensity (no concentration beside the values). AID 624483;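 active means at least 3 SD above the mean of all compounds, about 16000 in these data; inconclusive means too few beads counted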;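 further: 100 nL of 1 mM stock went into each well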
Sa ugtP lethal = kills S. aureus RN4220 lacking UgtP; S. aureus RN4220 ugtP deletion, OD600 growth, 16 h; some inactives read as strong as hits; growth inhibition, % (no concentration beside the values); 330,000 tested, 0.54% active; AID 1259309;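 active means z-score under -3 and OD600 up to 0.15 on both plates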;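 further: plate controls were untreated wells for no effect and antibiotic for full effect; wells of about 80 µL received 100 nL stock; the first replicate is given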
BJeLR viability = kills HRASV12-expressing BJeLR cells; BJeLR (HRASV12) viability, CellTiter-Glo ATP luminescence, 48 h; reference of the scale not given here; inhibition, % (concentration not given with the values); 300,000 tested, 0.17% active; AID 1554;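 active means replicate mean above 50%; inconclusive means above 50% but judged a plate artefact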;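 further: 50 nL library stock added to about 25 µL; numbers are from one replicate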
Mtb hypoxia inh growth = also measured in Mtb hypoxia inh; calls as there; growth inhibition, %; measured here: M. tuberculosis growth (absorbance);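 0% = vehicle and 100% = reference antibiotic; read after six days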
* = called active by the depositor; u = inconclusive; x = not tested or not shown.

SMILES	PrP 5UTR inh	RN4220 kill	Mtb hypoxia inh	Mtb hypoxia inh growth	Autofluor counter	Sa ugtP lethal	BJeLR viability
COc1ccc(C(=O)NC(=S)Nc2nc(-c3ccc(OC)c(Br)c3)cs2)cc1Br	-19	x	x	x	5600	x	7
CNC(=S)Nc1sc2c(c1C(=O)OC)CCC2	-32	22	17	11	4490	10	0
O=C(NC1(C(F)(F)F)NC(=O)N(Cc2cccnc2)C1=O)c1cccs1 (stereo not drawn)	-14	-0.4	x	x	2288	0	-2
CCNc1nc(SC(C)C(=O)Nc2ccccc2)nc(N(C)C)n1 (stereo not drawn)	-16	6.4	-12	-10	4022	3	5
O=C(NC(=S)N1CCCCC1CO)C12CC3CC(CC(C3)C1)C2 (stereo not drawn)	-5	1.1	5	8	x	6	0
CC(=O)Nc1ccc(OCC(O)CN2CCN(Cc3ccccc3)CC2)cc1 (stereo not drawn)	-32	5.2	8	8	7420	8	11
COc1ccc(-c2nnc(-c3ccc(N(C)C)cc3)o2)cc1	-42	0.2	3	4	8119	-5	-4
COc1ccc(C(=O)Nc2ncc3c(n2)CC(C)CC3=O)cc1 (stereo not drawn)	-10	-0.6	3	-15	1804	-5	-5
COc1ccc(Br)cc1C1C2C=CCC[C@@]2(C)C(=O)N1Cc1ccccc1 (stereo partly drawn)	x	-15	-1	1	x	19	x
O=C(c1ccco1)N1CCN(C2c3ccccc3-c3ccccc32)CC1	-8	0.1	2	21	4197	11	-5
O=C1NC(=O)C2(CCC(C(=O)O)C2)N1 (stereo not drawn)	-7	4.2	1	3	2903	-7	-4
O=C(NN=Cc1ccccc1C(F)(F)F)c1ccc2nc[nH]c2c1	x	-2.9	-2	-2	x	-6	x
Nc1nnc(CC(=O)N/N=C/c2ccccc2OCc2ccccc2F)s1	-14	x	x	x	6052	x	1
O=C(NCC1CCCO1)c1cc(S(=O)(=O)N2CCOCC2)ccc1Cl (stereo not drawn)	-1	0.1	6	8	6279	0	-11
COC(=O)CCN1CCC(C(N)=O)CC1	-19	3.2	3	6	3721	-5	2
CSc1nc(Cc2ccccc2)nc2ccccc12	-13	7.3	-3	-12	2201	33	-2
CCC(CC)CN1C(Nc2ccccc2)=NCC1CC(C)C (stereo not drawn)	x	4.8	2	1	x	3	x
CC(NC(=O)CN1C(=O)NC2(CCCCCC2)C1=O)c1ccccc1Cl (stereo not drawn)	-21	1.4	-6	-7	3286	2	x
Cc1cc(C(=O)COC(=O)c2ccc([N+](=O)[O-])o2)c(C)n1CC1CCCO1 (stereo not drawn)	-20	27	x	x	4310	4	-6
COc1cc(O)cc2occ(-c3ccc(O)cc3)c(=O)c12	-8	1.7	x	x	5669	3	3
COc1ccccc1CNC(=O)c1c(O)c2cc(OC)c(OC)cc2[nH]c1=O	-9	5.8	x	x	3303	7	1
CC[C@]12c3[nH]c4ccc(OC)cc4c3CCN1C(=O)C(CC(=O)NC/C=C(\C)CCC=C(C)C)C[C@@H]2C(=O)N1CCN(C(=O)C2CC2)CC1 (stereo partly drawn)	-12	-0.9	-7	10	2856	-6	x
CC1CN(CC(=O)Nc2cccc(C(=O)Nc3cccc(C(F)(F)F)c3)c2)CC(C)O1 (stereo not drawn)	-22	-4.3	1	3	3039	-8	-5
Cn1nc(C(=O)Nc2ccccc2)c2c1-c1ccccc1S(=O)(=O)C2	6	3.6	2	3	4350	2	10
COc1ccc2c(c1OC)C(=O)N1c3ccccc3SC21 (stereo not drawn)	-81	12	1	8	3100	2	-1
O=C(c1ccc(CN2CCOCC2)cc1)N1CCN(Cc2ccccc2)CC1	-15	-2.2	-2	8	4029	0	1
CCn1c2ccccc2c2cc(NC(=O)CSc3nccc(=O)[nH]3)ccc21	4	8.7	7	4	4484	12	-9
CCC(C)c1ccc(S(=O)(=O)N2CC(=O)Nc3ccccc32)cc1 (stereo not drawn)	-9	5.0	9	3	2190	1	-2
O=C(CSc1n[nH]c(-c2ccc(S(=O)(=O)NC3CCCCC3)cc2)n1)N1CCCC1	-3	1.2	-3	0	9698	0	1
Nc1nc(N)nc(-c2ccccn2)n1	-17	5.8	-1	0	3369	-1	0

Look-ups from the entries so far:
O=C(CSc1n[nH]c(-c2ccc(S(=O)(=O)NC3CCCCC3)cc2)n1)N1CCCC1 @ Mtb hypoxia inh growth: 0
Nc1nc(N)nc(-c2ccccn2)n1 @ Mtb hypoxia inh growth: 0

(cont.)
SMILES	PrP 5UTR inh	RN4220 kill	Mtb hypoxia inh	Mtb hypoxia inh growth	Autofluor counter	Sa ugtP lethal	BJeLR viability
Cc1ccc2cc(CN(Cc3cccs3)Cc3nnnn3CC3CCCO3)c(=O)[nH]c2c1 (stereo not drawn)	-23	4.0	-11	8	8678	1	1
Cc1ccc(SCC(=O)Nc2cccnc2)cc1	-26	5.8	5	-2	3454	-4	-2
COC(=O)CN(C#N)c1nc(N(C)C)nc(N(C)C)n1	-68	3.5	21	23	4153	4	-2
O=S(=O)(NC1CCN(S(=O)(=O)c2c(F)cccc2F)CC1)c1ccc2c(c1)OCCO2	-15	1.0	-2	7	3915	-3	x
Cc1cc(CN(C)C(=O)CC2C(=O)NCCN2CC(c2ccccc2)c2ccccc2)on1 (stereo not drawn)	19	1.7	2	4	2731	0	0
CCCCCCSc1nsc(NC(=O)CC(C)C)n1	-28	2.7	16	12	2466	0	-2
COc1ccc(-n2nc(C(=O)NCC(=O)NCC3COc4ccccc4O3)c3ccccc3c2=O)cc1OC (stereo not drawn)	-16	6.2	3	2	3237	2	-6
Cc1cccc(CSC2=NCCN2C(=O)C2CC2)c1	11	-3.0	x	x	2829	0	2
Cc1c(C=NNC(=O)c2cccnc2)c2ccccn2c1C(=O)c1ccc(F)cc1	x	-1.4	6	5	x	-1	x
CC(C)c1ccccc1-n1c(SCC(=O)c2ccc3c(c2)NC(=O)CO3)nc2ccccc2c1=O	19	0.1	1	7	3379	25	-16
CCOC(=O)c1ccc(NC(=O)CCOc2ccc(C)cc2)cc1	-18	0.7	17	3	9965	1	4
COc1ccccc1N=Cc1c(C)c(C#N)c2[nH]c3ccccc3n2c1=O	-10	0.2	-5	4	4603	-11	9
COc1ccc(C(=O)Nc2ccc(C(=O)N3CCC(C)CC3)cc2)cc1OC	-8	-2.1	11	5	5759	6	-9
CCOC(=O)c1c(NC(=S)Nc2cc([N+](=O)[O-])ccc2OC)sc2c1CCCCC2	x	6.0	-5	1	x	1	4
COC(=O)c1cc(S(=O)(=O)Nc2cccc(C)c2C)cn1C	8	7.8	9	7	5378	11	5
O=C(OC(C(=O)NC1CCCCC1)c1ccccn1)c1cccs1 (stereo not drawn)	-8	7.5	-3	1	3744	-3	4
CC(=O)c1ccc(OCCCC(=O)N2CCN(S(=O)(=O)c3cc(C)ccc3C)CC2)cc1	-11	4.6	-2	-4	6298	7	-5
O=C(NCC1CCCO1)c1cc2ccccc2nc1Cl (stereo not drawn)	-31	6.5	0	1	3270	9	-4
CC1CN(C(=O)c2cc3cc([N+](=O)[O-])ccc3oc2=O)CC(C)O1 (stereo not drawn)	-11	1.8	1	3	5503	-3	8
COc1ccc(-c2cc(C(F)F)n3ncc(C(=O)Nc4ccc(C(=O)N5CCOCC5)cc4)c3n2)cc1	-14	9.6	11	2	4507	-13	7

The list goes on, starting with the last four of the part before.
SMILES	PrP 5UTR inh	RN4220 kill	Mtb hypoxia inh	Mtb hypoxia inh growth	Autofluor counter	Sa ugtP lethal	BJeLR viability
CC(=O)c1ccc(OCCCC(=O)N2CCN(S(=O)(=O)c3cc(C)ccc3C)CC2)cc1	-11	4.6	-2	-4	6298	7	-5
O=C(NCC1CCCO1)c1cc2ccccc2nc1Cl (stereo not drawn)	-31	6.5	0	1	3270	9	-4
CC1CN(C(=O)c2cc3cc([N+](=O)[O-])ccc3oc2=O)CC(C)O1 (stereo not drawn)	-11	1.8	1	3	5503	-3	8
COc1ccc(-c2cc(C(F)F)n3ncc(C(=O)Nc4ccc(C(=O)N5CCOCC5)cc4)c3n2)cc1	-14	9.6	11	2	4507	-13	7
Cc1ccc(S(=O)(=O)c2ccc(-n3nc(C)cc3N)cc2)cc1	-8	2.8	0	7	3428	3	-8
Cc1ccc(S(=O)(=O)NCCC(=O)OCC(=O)N2CCCC2=O)cc1	-31	1.0	9	2	6146	1	2
COc1ccc(S(=O)(=O)N2CCOCC2)cc1NC(=O)COC(=O)c1ccc([N+](=O)[O-])s1	-6	18	12	8	2785	12	x
COc1ccc(C(=O)Nc2ccc(S(=O)(=O)NCc3ccco3)cc2)cc1OC	-33	1.3	5	4	5801	0	1
CCC(=O)c1ccc(OCC(=O)Nc2nc(-c3cccnc3)cs2)cc1	-5	2.0	-10	-4	x	-5	8
O=c1[nH]c2ccccc2c(=O)n1-c1ccc(Cl)cc1Cl	-15	x	x	x	4252	x	30
O=C(NCCC1=CCCCC1)C1CC(=O)N(Cc2ccccc2)C1 (stereo not drawn)	-10	2.2	0	6	5764	6	-2
O=C(C[n+]1cccc(NC(=O)c2ccccc2)c1)c1ccccc1	-2	-6.2	14	6	2431	2	4
COCCOc1ccc(C(F)(F)F)cc1NC(=O)COC(=O)c1ccc(N2CCCC2=O)cc1	-34	2.7	15	7	3641	7	x
CCC(Sc1nc(C)cc(=O)[nH]1)C(=O)Nc1sc2c(c1C#N)CCCC2 (stereo not drawn)	-6	4.3	14	3	7966	-12	-7
CCN(C(=O)c1ccc(S(=O)(=O)N2CCCCC2)cc1)C1CCS(=O)(=O)C1 (stereo not drawn)	-17	3.4	10	-4	4606	5	1
O=C(CSc1nnc(Cc2ccccc2)n1-c1ccc(Cl)cc1)N1CCOCC1	-25	-4.1	0	-9	11726	-5	0
COc1cc(OC)cc(C(=O)NCC(=O)OC2CCCCC2=O)c1 (stereo not drawn)	-19	9.2	-2	-10	4593	8	x
CC(=O)Nc1ccc(NC(=O)CSC2=NS(=O)(=O)c3ccccc3N2)cc1	-24	-0.8	9	10	4263	12	-9
COc1ccc(NC(=O)CN(C)CC(=O)NCc2ccc(C)cc2)cc1	-12	7.1	-4	-5	u	7	x
COc1ccc(NC(=O)c2cc(S(=O)(=O)N3CCCCC3)c[nH]2)c(OC)c1	-10	6.3	-3	6	5705	-2	-6
CCOC(=O)[C@@]1(C#N)[C@@H]2C=CC(C(N)=O)=CN2[C@@H](C(N)=O)[C@@H]1c1cccc(Cl)c1	-3	-1.9	4	5	4775	-3	2
O=c1cc(-c2ccc(O)cc2)oc2ccc3ccccc3c12	78*	-3.1	7	8	8547	-3	x
COc1ccc(OC)c(COC(=O)c2cc([N+](=O)[O-])ccc2N2CCOCC2)c1	-36	0.2	0	4	3911	-7	x
O=C(CCCn1c(=O)c2ccccc2n(Cc2cccc(F)c2)c1=O)NC1CCN(Cc2ccccc2)CC1	x	3.9	-4	3	x	15	4
COc1ccccc1C(=O)NCCC(=O)N(C)Cc1ccc(C)o1	-13	1.7	6	3	6320	1	-3
N/C(=N\OC(=O)c1cccc(F)c1)c1ccccn1	-50	3.4	5	-5	5987	6	-5
CCCCC(=O)N/N=C/c1c(O)n(CCC2=CCCCC2)c(=O)[nH]c1=O	x	4.5	-6	4	3411	6	-4
COc1ccc(NC(=O)n2ncc3c(C)cccc32)cc1OC	-64	2.1	1	0	4073	-3	-2
O=C(COc1ccc(Cl)cc1Cl)Nc1nnc(C2=COCCO2)o1	-13	-2.2	14	1	4361	-69	38
COC(=O)c1cc(C(=O)OCC(=O)NC2CCCC2)cc([N+](=O)[O-])c1	-16	3.4	3	0	3908	-5	5
COc1cc(C(=O)COC(=O)c2cccs2)cc(OC)c1OC	-8	1.0	15	3	3814	4	x
COc1ccc(OC)c(CNC(=O)C2CCN(S(=O)(=O)N3CCCC3)CC2)c1	-22	1.4	7	1	10542	8	1
CCn1cc(C=NNC(=O)Cc2ccc([N+](=O)[O-])cc2)c(C)n1	x	6.7	-1	3	x	8	x
COC(=O)c1ccc(NS(=O)(=O)c2ccc3[nH]c(=O)oc3c2)cc1	-18	1.4	15	3	6324	6	-10
O=C(NCCN1CCOCC1)C(Sc1ccccc1)c1ccccc1 (stereo not drawn)	-91	5.2	17	0	3599	14	-3
COCCCNC(=S)NNC(=O)c1csc(C)n1	-5	5.2	2	13	4012	5	-5
